# GLA inh pH 4.5 = inhibitors of human alpha-galactosidase A at pH 4.5. P06280. purified enzyme, 4-MU-alpha-Gal fluorescence, pH 4.5. activity change, negative = inhibition, % at 105 µM. 230,000 tested, under 10 active; inconclusive = small, poorly fitted or top-dose-only inhibition, or a rising curve; inactive = flat fitted curve, though single readings scatter; no compound was filed as active;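 note: 0% = full activity with enzyme and -100% = basal without enzyme; dose as in the result columns while the protocol names 77 µM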
# miR-21 FLuc = raises the signal of a miR-21 reporter; Potency, µM (highest dose often 38.3 µM), inactives show at the highest dose reporter change, positive = more light; 340,000 tested, under 10 active; HeLa miR-21 FLuc reporter, luciferase, 48 h; active = well fitted rising curve with a large enough effect; inconclusive = small, poorly fitted or top-dose-only effect; inactive = no such curve, though single readings can be large or run the other way;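 note: % of control where 0% means no effect; miR-21 action dims this reporter so a rising signal means less miR-21 action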
#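 Compounds were titrated across several concentrations (up to approximately 40 uM) and incubated 48 hours with HeLa miR-21-FLuc reporter cells (miR-21 target sequence downstream of FLuc, endogenous miR-21). Readout was firefly luciferase luminescence after lytic detection reagent.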
# Rango-impB inh = Rango-importin beta binding inhibition | Q14974 | Rango CFP/YFP FRET sensor + importin beta, 45 min | Potency, µM (top dose mostly 92.2 µM), for the others: at the top dose inhibition of complex formation | 340,000 tested, 0.031% active | AID 540263; active = rising FRET ratio curve, often small or poorly fitted; inconclusive = mostly compound fluorescence or quenching in the first reads; inactive = flat curves in all reads;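 note: potency is the fitted concentration of half-maximal effect; 0% = DMSO wells and 100% = buffer wells lacking importin beta; nearly all actives have a fitted effect of over 15% in size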
# Target sequence (Q14974 whole entry, looked up): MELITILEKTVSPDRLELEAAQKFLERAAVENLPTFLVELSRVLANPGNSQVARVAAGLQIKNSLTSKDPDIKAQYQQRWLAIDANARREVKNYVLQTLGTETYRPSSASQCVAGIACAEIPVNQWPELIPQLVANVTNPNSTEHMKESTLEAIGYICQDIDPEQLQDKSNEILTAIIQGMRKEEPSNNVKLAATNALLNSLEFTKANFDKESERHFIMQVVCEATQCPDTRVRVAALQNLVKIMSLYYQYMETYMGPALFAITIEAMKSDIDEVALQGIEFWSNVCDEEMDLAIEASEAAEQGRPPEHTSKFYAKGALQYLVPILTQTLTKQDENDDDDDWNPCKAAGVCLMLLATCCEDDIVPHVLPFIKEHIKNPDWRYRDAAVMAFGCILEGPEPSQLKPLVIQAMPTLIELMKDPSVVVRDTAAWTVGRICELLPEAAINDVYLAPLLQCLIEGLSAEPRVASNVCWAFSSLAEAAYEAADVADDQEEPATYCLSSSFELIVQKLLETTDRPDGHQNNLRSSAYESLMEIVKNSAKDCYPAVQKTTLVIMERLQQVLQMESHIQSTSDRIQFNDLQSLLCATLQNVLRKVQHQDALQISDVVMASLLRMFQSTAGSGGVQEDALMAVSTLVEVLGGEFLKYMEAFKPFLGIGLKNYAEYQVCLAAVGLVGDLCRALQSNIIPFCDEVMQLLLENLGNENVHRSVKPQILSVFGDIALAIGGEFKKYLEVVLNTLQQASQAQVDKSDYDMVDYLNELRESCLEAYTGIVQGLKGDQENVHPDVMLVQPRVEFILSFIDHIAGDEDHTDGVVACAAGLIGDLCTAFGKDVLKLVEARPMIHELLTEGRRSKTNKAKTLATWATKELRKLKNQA
#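 FRET biosensor (snurportin 1 IBB flanked by EYFP and cerulean), 50 nM, with compound 5 min, then 0.125 microM importin beta in PBS, 1 mM DTT, 0.02% Tween-20, 0.1% BSA. CFP/YFP ratio read after 45 min at room temperature; pre-read flags interference.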
# Rango release inh = inhibitors of RanGTP-induced Rango-importin beta complex dissociation | O95149+P62826 | Biochemical FRET Rango-importin beta, RanGTP-induced dissociation | Potency, µM (series often up to 46.1 µM), for the others: at the highest dose activity change, negative = inhibition | 340,000 tested, 0.071% active | AID 540253; active means falling FRET ratio curve, often poorly fitted, with flat reads before Ran was added; inconclusive means other falling curves, or compound fluorescence or quenching; inactive means flat or rising ratio curve;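 note: potency is the fitted concentration of half-maximal effect; % of control where 0% means no effect; nearly all actives have a fitted effect of over 45% in size; -100% = wells without RanGTP and RCC1; the record marks most hits as doubtful in a second field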
#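 Rango (0.1 uM)–importin beta (0.25 uM) complex; RanGTP-RCC1 trigger; 45 min RT; CFP/YFP FRET read.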
# * marks the source's active call; other numbers are inactive results; ? = inconclusive; . = not tested or not shown. These rows are one share of the data; count on the stated rates, not on these rows.
GLA inh pH 4.5	miR-21 FLuc	Rango-impB inh	Rango release inh	canonical_smiles
4.1	2.2%	5.0%	16.5%	CCCCC(c1nnnn1CCOC)N1CCN(C(=O)c2ccco2)CC1 (stereo not drawn)
.	.	-2.7%	-2.0%	CC(=O)c1ccc(-c2ccc(C(=O)NCC(c3ccc(F)cc3)N3CCOCC3)o2)cc1 (stereo not drawn)
5.7	-39.4%	-1.5%	?	Cc1ccc(-c2nn(-c3ccccc3)cc2/C=N/NC(=O)c2ccc(Br)o2)cc1
-1.4	-2.0%	?	22.2%	CC(C)N1CCC(N2CCN(Cc3ccc(C#CC(C)(C)O)s3)CC2CCO)CC1 (stereo not drawn)
-1.4	-20.6%	2.8%	-1.5%	CC(C)c1cc(C(=O)NCc2cccnc2)no1
4.7	-4.5%	0.9%	2.3%	CC1(O)CC(=O)N(c2ccccc2)O1 (stereo not drawn)
2.9	-0.1%	-0.2%	36.0%	COCCNC(=O)Cn1c(=O)n(CCC(=O)NCCc2ccccc2)c(=O)c2ccccc21
2.7	-11.4%	-2.2%	0.1%	Cc1ccc(Oc2ncccc2CO)cc1
-6.9	-20.7%	-1.0%	6.4%	CCC(=O)N(CCCN(C)C)c1nc(-c2cc(OC)ccc2OC)cs1
-9.3	?	0.8%	-2.6%	COc1cc(C(=O)Nc2nc(-c3cccs3)cs2)cc(OC)c1OC
-9.0	-5.3%	4.2%	16.6%	Cc1ccc(C)n1-c1nn(S(=O)(=O)c2ccccc2)c2cccc(F)c12
.	-9.5%	2.5%	6.1%	Cc1ccc(-c2nc(CN3CCCC(C(=O)N4CCOCC4)C3)c(C)o2)cc1 (stereo not drawn)
9.4	0.7%	-1.1%	-17.5%	COc1ccc(N2CC(O)=C(c3nc(-c4ccccc4)cs3)C2=N)cc1
1.8	2.4%	1.8%	7.6%	COc1cc2ncnc(NCc3cccc(Cl)c3)c2cc1OC
.	.	1.5%	-12.9%	Cc1ccc(NC(=O)COC(=O)c2ccc(S(=O)(=O)N3CCCCC3)cc2)cc1
-4.6	-14.3%	-1.0%	11.5%	Cc1sc(NC(=O)CCC(=O)O)c(C(N)=O)c1-c1ccccc1
.	.	1.2%	13.3%	O=C(O)COc1ccc(Cl)cc1C1CCCCC1
.	-7.3%	-1.0%	-0.5%	CSc1ccccc1OCc1cc(C(=O)NC2CCc3ccccc32)no1 (stereo not drawn)
2.6	6.9%	0.8%	-6.9%	Cc1c(CN2CCCC(C(=O)c3cccc(OC(C)C)c3)C2)c(=O)n(-c2ccccc2)n1C (stereo not drawn)
.	.	-1.6%	-10.9%	[O-][n+]1ccc(OCc2ccccc2)cc1
.	.	-2.1%	13.8%	Nc1c(C(=O)CSc2nc3ccccc3o2)c(=O)[nH]c(=O)n1C1CC1
.	.	2.7%	13.1%	Cc1ccc(C)c(NC(=O)COC(=O)c2ccc3ccccc3n2)c1
.	-5.7%	-3.3%	-8.9%	O=C(Nc1nnc(Cc2ccc(F)cc2)s1)Nc1ccccc1F
13.5	-8.3%	-0.5%	12.7%	O=C(COc1ccc(F)cc1)NC1CC1
-9.9	-7.6%	-2.2%	1.4%	Cc1cccc(-n2c(-c3ccncc3)n[nH]c2=S)c1
-10.5	-19.6%	2.1%	2.3%	Cc1ccc2c(c1)N(CC(=O)N1CCCc3ccccc31)C(=O)C(C)O2 (stereo not drawn)
.	0.1%	4.0%	-21.2%	O=C(Nc1cc(F)ccc1F)C1CCN(S(=O)(=O)c2cccc3nonc23)CC1
.	-3.0%	0.4%	-3.8%	COc1ccc(CCNC(=O)CNCCc2ccc(F)cc2)cc1
-2.5	11.0%	-2.5%	0.0%	C#CCNC(=O)C1=C[C@@H](c2csc3ccccc23)C[C@@H](OCc2ccc(CO)cc2)O1
-1.4	-11.9%	-2.6%	31.9%	COCCCNC(=S)N/N=C/c1ccc(O)cc1
.	.	1.0%	2.6%	COc1ccccc1C(=O)NC(=O)COC(=O)Cn1cnc2c1c(=O)n(C)c(=O)n2C
.	-5.0%	4.7%	67.6%	O=C(NCc1ccccc1F)c1ccncc1
4.0	-3.0%	2.9%	0.5%	CCN(CC)S(=O)(=O)c1cccc2nsnc12
-2.4	-5.0%	2.5%	23.1%	CCN(CC)CCNC(=O)CS(=O)Cc1nc(-c2ccccc2Cl)oc1C (stereo not drawn)
.	.	-1.1%	6.1%	COc1ccc(S(=O)(=O)N2CCCC2CNC(=O)C(=O)NCc2ccco2)cc1 (stereo not drawn)
.	-3.0%	-0.8%	27.4%	COCCn1c(=NC(=O)CSCC(=O)N2CCOCC2)sc2cc(C)ccc21
-0.1	-0.9%	-0.1%	?	CCc1ccccc1N1CN(Cc2cccnc2)CNC1=S
.	.	?	?	CCCCNc1c(-c2ccc(SC(C)CC)cc2)nc2cnccn12 (stereo not drawn)
.	-3.2%	-1.4%	-9.3%	CCOC(=O)N1CCN(S(=O)(=O)c2ccc(C(=O)Nc3sc4c(c3C(N)=O)CC(C)(C)NC4(C)C)cc2)CC1
.	.	1.8%	2.8%	Cc1ccc(C(=O)N(C)CC(=O)Nc2ccc(Cl)c(C(F)(F)F)c2)cc1S(=O)(=O)N1CCCCC1
.	.	-3.2%	0.7%	COc1ccc(C(=O)Nc2ccc(S(=O)(=O)N3CCc4ccccc43)cc2)cc1
-3.9	-16.0%	0.2%	0.6%	C/C(=N\NC(=O)C1CCCN(S(=O)(=O)c2ccccc2)C1)c1ccncc1 (stereo not drawn)
3.3	-1.7%	-1.7%	9.0%	COC(=O)c1ccc(C)c(NC(=O)Cn2cnc3ccccc3c2=O)c1
2.9	-1.2%	5.7%	9.3%	CC1=CC2=NCC(O)CN2C=C1 (stereo not drawn)
-10.4	-10.3%	3.3%	-10.2%	CS(=O)(=O)Nc1ccc(N2CCCCC2)c(Cl)c1
.	-5.1%	1.0%	-4.7%	CCOC(=O)c1ccc(P(=O)(c2ccccc2)c2ccccc2)cc1
1.2	4.8%	4.5%	-11.7%	Cn1c(=O)[nH]c(=O)c2c1nc(NCCCn1ccnc1)n2Cc1ccccc1
1.8	11.0%	2.1%	23.2%	COc1ccc(NC(=O)CSc2ncnc3c2cnn3Cc2ccccc2)cc1
-4.1	0.1%	-4.6%	-12.4%	C=CCNC(=O)/C(C#N)=C/c1ccc(C(=O)O)cc1
.	-0.7%	0.4%	11.1%	CCCCn1c2ccc(C)cc2c2nnc(SCCN3CCCCC3)nc21

# Next part:
GLA inh pH 4.5	miR-21 FLuc	Rango-impB inh	Rango release inh	canonical_smiles
-4.6	-1.2%	-0.3%	-4.1%	COc1cccc(CN2CCN(CC(=O)Nc3ccccc3Cl)CC2)c1
3.6	-14.8%	-4.6%	-13.4%	O=C(COC(=O)c1n[nH]c2ccccc12)NCc1ccccc1
.	12.4%	-1.2%	-7.2%	O=C(CCNC(=O)C1CCN(S(=O)(=O)c2ccccc2)CC1)NCc1ccc(Cl)cc1Cl
-2.3	-23.0%	3.7%	6.6%	Cc1ccc(C(=O)CSc2nnc(-c3ccccc3N)n2C)cc1C
2.2	3.3%	-1.4%	-10.9%	COc1ccc(C(=O)C(Sc2nnc(C)c(=O)[nH]2)c2ccc(OC)cc2)cc1 (stereo not drawn)
-0.7	0.1%	-4.3%	16.4%	O=c1c2ccccc2oc2nc(C3CCCCC3)n(Cc3ccco3)c(=O)c12
2.1	-14.4%	0.1%	7.2%	CCOC(=O)c1cc(-c2ccc(OC)cc2OC)nn1-c1ccc(C(=O)O)cc1
5.3	-1.7%	0.0%	-1.7%	O=C1CCC(C(=O)NCc2ccc3c(c2)OCO3)N1 (stereo not drawn)
.	-0.1%	-2.4%	-2.3%	CCC(=O)c1ccc(OCC(=O)Nc2ccc(N3CCOCC3)cc2N2CCOCC2)cc1
.	13.3%	-0.2%	-3.0%	C=C1CCC[C@]2(C)C[C@H]3OC(=O)C(CNC(C)(CO)CO)[C@H]3CC12 (stereo partly drawn)
.	.	-4.0%	23.0%	CN(CCOc1ccc(Cl)cc1)C(=O)CN1C(=O)NC2(CCCCC2)C1=O
11.3	-5.2%	-4.2%	7.3%	COc1ccc(CNC(=O)c2ccc(NC(=O)CC3SC(N4CCCC4)=NC3=O)cc2)cc1 (stereo not drawn)
.	.	0.8%	-4.2%	COc1ccccc1CCNC(=O)c1cccc(S(=O)(=O)NCc2ccccc2)c1
5.7	-35.8%	-3.6%	4.9%	O=C(Nc1ccc(Cl)cn1)Nc1ccccc1F
.	1.0%	0.3%	6.5%	Cc1cc(OC(C)C(=O)NCC2CCCO2)cc(C)c1Cl (stereo not drawn)
-9.1	17.0%	-4.2%	0.0%	Oc1ccccc1-c1cc(-c2ccc3c(c2)OCCO3)n[nH]1
1.3	-1.6%	0.5%	3.0%	CCc1cccc(CC)c1NC(=O)COC(=O)c1ccc2c(c1)S(=O)(=O)c1ccccc1C2=O
.	-9.8%	-1.0%	1.8%	Cc1cc(C)c(NC(=O)CNC(=O)COC(=O)C2CCN(c3ccc(C(F)(F)F)cn3)CC2)c(C)c1
-4.6	-14.0%	0.5%	?	Cc1ccc(C)c(NC(=O)c2sc(Cl)nc2C)c1
5.7	-84.5%	-2.0%	-13.5%	CCOC(=O)c1c(C)[nH]c(C(=O)COC(=O)CNC(=O)c2ccccc2Cl)c1C
.	.	1.0%	1.3%	O=S(=O)(c1ccc(F)cc1)N1CCN(C(=S)NC2CC2)CC1
.	.	-4.0%	3.0%	O=C(CCSCCC(=O)NN=Cc1ccc(F)cc1)NN=Cc1ccc(F)cc1
.	-2.7%	-2.2%	1.0%	CCc1c(C)nc(N2CCN(c3ccccc3F)CC2)[nH]c1=O
.	-1.4%	3.8%	-2.3%	CCOc1ccccc1NC(=O)CCNS(=O)(=O)c1ccc(NC(C)=O)cc1
-0.8	-4.6%	4.5%	-7.4%	CC(=O)CC(C)(C)n1nnc(-c2ccccc2)n1
.	-1.9%	?	-0.4%	C/C(=N\NC(=O)C(O)c1ccccc1)c1ccc(Cl)s1 (stereo not drawn)
0.7	-2.6%	-1.2%	-5.6%	O=C(NCCN1CCOCC1)C1CCN(c2ncnc3c2sc2cccc(F)c23)CC1
9.4	2.9%	-2.6%	-1.3%	CN(Cc1nc(Cc2cccc(C(F)(F)F)c2)no1)C1CC(C)(C)NC(C)(C)C1
.	.	-0.7%	1.1%	O=C(NCC(c1ccccc1Cl)N1CCCC1)C1CCN(C(=O)Nc2ccccc2)CC1 (stereo not drawn)
.	2.2%	0.5%	1.0%	CCOc1ccccc1CN1CCC(n2nccc2NC(=O)CCc2ccccc2)CC1

# Reformatted: entries from further up
CC(=O)CC(C)(C)n1nnc(-c2ccccc2)n1
  GLA inh pH 4.5: -0.8 | miR-21 FLuc: -4.6% | Rango-impB inh: 4.5% | Rango release inh: -7.4%

C/C(=N\NC(=O)C(O)c1ccccc1)c1ccc(Cl)s1 (stereo not drawn)
  GLA inh pH 4.5: . | miR-21 FLuc: -1.9% | Rango-impB inh: ? | Rango release inh: -0.4%

O=C(NCCN1CCOCC1)C1CCN(c2ncnc3c2sc2cccc(F)c23)CC1
  GLA inh pH 4.5: 0.7 | miR-21 FLuc: -2.6% | Rango-impB inh: -1.2% | Rango release inh: -5.6%

# Another view of 2 compounds above.
> COCCCNC(=S)N/N=C/c1ccc(O)cc1
  GLA inh pH 4.5: -1.4
  miR-21 FLuc: -11.9%
  Rango-impB inh: -2.6%
  Rango release inh: 31.9%

> C/C(=N\NC(=O)C(O)c1ccccc1)c1ccc(Cl)s1 (stereo not drawn)
  GLA inh pH 4.5: .
  miR-21 FLuc: -1.9%
  Rango-impB inh: ?
  Rango release inh: -0.4%

# (cont.)
GLA inh pH 4.5	miR-21 FLuc	Rango-impB inh	Rango release inh	canonical_smiles
2.9	-23.8%	.	.	CC(=O)c1ccc(Nc2nc(C)nc3c2oc2ccccc23)cc1
.	-21.9%	-0.8%	3.4%	Cc1ccsc1CNCC(O)c1ccccc1 (stereo not drawn)
3.2	0.1%	-2.9%	-23.8%	Cc1cc(=O)[nH]c(-n2[nH]c(C)cc2=O)n1
-10.8	-4.5%	-1.9%	-11.7%	COc1cc(NC(=S)NCc2ccco2)cc(OC)c1OC
.	-3.2%	1.6%	-0.2%	Cc1cc(=O)oc2cc(OC(C)C(=O)NCCc3ccc(S(N)(=O)=O)cc3)ccc12 (stereo not drawn)

# Screening data deposited in PubChem BioAssay by National Center for Advancing Translational Sciences (NCATS).
